High-throughput results (PubChem)
PV pol inh: inhibitors of poliovirus RNA polymerase binding and polymerization; poliovirus polymerase elongation, fluorescence polarization; stronger effect = lower value; AID 588519; % elongation, % (compound at 16.7 µg/mL); hit rate 0.66% among 150,000; in the data active = % elongation below about 90%; note: some results filed as inactive read as strong as hits
Target sequence (P03300 1749-2209 limits assumed): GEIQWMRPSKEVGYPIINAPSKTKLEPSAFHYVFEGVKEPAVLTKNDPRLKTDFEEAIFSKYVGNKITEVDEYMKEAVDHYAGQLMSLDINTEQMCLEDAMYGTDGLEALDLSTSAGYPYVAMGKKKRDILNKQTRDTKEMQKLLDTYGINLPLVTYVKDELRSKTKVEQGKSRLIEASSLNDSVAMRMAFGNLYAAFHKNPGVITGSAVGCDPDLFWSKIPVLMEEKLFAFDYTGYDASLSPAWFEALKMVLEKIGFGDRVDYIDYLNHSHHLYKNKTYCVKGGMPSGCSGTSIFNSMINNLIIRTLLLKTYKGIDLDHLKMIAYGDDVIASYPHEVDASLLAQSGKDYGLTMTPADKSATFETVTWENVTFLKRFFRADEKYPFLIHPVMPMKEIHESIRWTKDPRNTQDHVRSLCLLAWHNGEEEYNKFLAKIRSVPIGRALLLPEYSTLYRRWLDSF
Mtb MenB inh: blocks the Mycobacterium tuberculosis MenB enzyme | MenB enzyme assay, absorbance read-out; some hits fall short of the stated cut | hit rate 0.43% among 100,000 | P9WNP5 | AID 540299 | inhibition, %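 (about 12 µg/mL by stock and volumes)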;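 active = mean of two replicates above 30%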;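 note: 0% = no compound and 100% = wells with inactive enzyme; the first replicate is given; strong numbers were not always called active; inactives centre near -10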
MbtI inh: inhibitors of Mycobacterium tuberculosis siderophore enzyme MbtI; inhibition, %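 (about 17 µg/mL by stock and volumes)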; hit rate 0.89% among 100,000; AID 493033; purified MbtI enzyme, fluorescence intensity read-out; P9WFX0;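 active = above 50% in both replicates, above 80% if mildly self-fluorescent; inactive = the rest, strongly fluorescent compounds included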;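 note: 0% = mean of negative and 100% = mean of positive controls; one replicate is shown; some compounds called inactive have numbers as strong as hits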
Target sequence (P9WFX0 whole entry, looked up): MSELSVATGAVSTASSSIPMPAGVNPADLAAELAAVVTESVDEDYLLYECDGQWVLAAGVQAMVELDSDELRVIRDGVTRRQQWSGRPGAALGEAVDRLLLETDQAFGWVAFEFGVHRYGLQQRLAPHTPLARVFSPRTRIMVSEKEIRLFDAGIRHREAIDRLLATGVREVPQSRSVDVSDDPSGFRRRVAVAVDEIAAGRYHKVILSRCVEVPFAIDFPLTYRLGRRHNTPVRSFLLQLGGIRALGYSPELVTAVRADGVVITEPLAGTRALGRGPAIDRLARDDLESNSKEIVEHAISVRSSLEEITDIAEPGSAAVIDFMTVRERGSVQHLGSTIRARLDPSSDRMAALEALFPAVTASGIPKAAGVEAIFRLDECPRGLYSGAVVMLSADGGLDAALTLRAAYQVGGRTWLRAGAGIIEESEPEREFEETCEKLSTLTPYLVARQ
PV pol inh intensity: further read-out of PV pol inh, marked with its call; % elongation; measured here: total intensity read-out; formula for this scale not given here;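 total fluorescence in place of polarization; lower means less elongation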
Numbers without * were called inactive; x = not tested or not shown.

A first look (4 entries):
smiles	PV pol inh	PV pol inh intensity	Mtb MenB inh	MbtI inh
CC1(C)C(=N)N(c2ccccc2)C(=O)N1c1ccccc1	105.0	106.0	-24.1	-10.6
CCCCNC(=O)Cc1ccc(Br)cc1	101.0	101.0	3.1	-3.9
COC(=O)c1ccccc1NC(=O)N1CCC(CN2CCOCC2)CC1	105.0	108.0	-19.6	27.2
Cc1ccc2c(c1)NC(=O)c1cc(S(=O)(=O)N3CC(C)OC(C)C3)ccc1O2 (stereo not given)	104.0	103.0	-19.8	-5.3

The listing, repeating the preview:
smiles	PV pol inh	PV pol inh intensity	Mtb MenB inh	MbtI inh
CC1(C)C(=N)N(c2ccccc2)C(=O)N1c1ccccc1	105.0	106.0	-24.1	-10.6
CCCCNC(=O)Cc1ccc(Br)cc1	101.0	101.0	3.1	-3.9
COC(=O)c1ccccc1NC(=O)N1CCC(CN2CCOCC2)CC1	105.0	108.0	-19.6	27.2
Cc1ccc2c(c1)NC(=O)c1cc(S(=O)(=O)N3CC(C)OC(C)C3)ccc1O2 (stereo not given)	104.0	103.0	-19.8	-5.3
S=c1oc(C2COc3ccccc3O2)nn1CN1CCN(C/C=C/c2ccccc2)CC1 (stereo not given)	114.0	128.0	-65.4	10.9
CCC(=O)N(Cc1cc2ccc(C)cc2n2nnnc12)C1CCCCC1	103.0	101.0	4.7	4.5
O=C(CC(C(=O)O)C1CCCO1)Nc1cccc(C(F)(F)F)c1 (stereo not given)	98.0	102.0	8.3	-6.0
O=C(O)/C(=C/C(=O)c1ccc(F)cc1)Nc1ccc2[nH]c(=O)[nH]c2c1	108.0	123.0	-9.2	0.4
Cc1cc(NC(=O)COC(=O)C2(c3ccc(Cl)cc3)CCCC2)no1	103.0	109.0	-10.4	-8.5
CCOC(=O)N1CCC(NC(=O)CCn2cccc2)CC1	103.0	102.0	-10.5	-15.5
O=C1c2ccccc2C(=O)N1CCSC1=Nc2ccccc2C2CC=NN12 (stereo not given)	105.0	98.0	34.1*	-1.4
Cc1noc2nc(-c3cccs3)cc(C(F)(F)F)c12	103.0	104.0	x	-4.7
C=C(C)CC1(CC(=C)C)CCCCN1	105.0	104.0	-14.4	-8.9
Cc1ccc2nc(CCCC(=O)OC(C)C)[nH]c2c1	102.0	102.0	-13.1	-15.0
CC1CCCCC1NC(=O)c1ccc(/C=C2/Sc3ccccc3NC2=O)cc1 (stereo not given)	104.0	107.0	-17.1	-7.1
COc1ccc(CNS(=O)(=O)N(C)C)cc1	104.0	101.0	-4.6	x
O=C(c1cccc(C(F)(F)F)c1)C1CCN(C(=O)N2CCOCC2)CC1	100.0	102.0	20.5	-2.5
CN(C)C(=O)N1CCC(C(=O)N2CCC3(CC2)OCCO3)CC1	103.0	103.0	-6.3	8.3
COc1ccc(C(=O)OCC2CC(c3ccccc3)=NO2)cc1OC (stereo not given)	105.0	107.0	-12.7	-9.8
Cc1cccc(C)c1NC(=O)C1C2C=CC(C2)C1C(=O)O (stereo not given)	100.0	100.0	13.7	-4.8
CC(C)N1C(=O)CC(N2CCOCC2)C1=O (stereo not given)	103.0	103.0	-2.9	-16.1
CC(C)n1c(-c2ccccc2)nc(=S)c2c1CCCC2	100.0	107.0	-27.3	4.9
O=C(NC1CCCC1)c1csc2c1CCCC2	104.0	104.0	-10.3	-3.2
Cn1c(SCc2ccccc2)nnc1C1CCCN1S(C)(=O)=O (stereo not given)	102.0	99.0	-19.3	-11.0
O=C1CC(c2coc3ccccc3c2=O)Sc2ccccc2N1 (stereo not given)	106.0	101.0	3.0	-9.8
O=C(NCc1ccccc1)C(=O)c1c(O)[nH]c2ccccc12	103.0	106.0	6.4	8.6
CN(Cc1ccccc1)S(=O)(=O)c1cc(F)ccc1CN1C(=O)c2cccnc2C1=O	105.0	103.0	-10.4	-16.4
COc1cc(NC(=O)c2ccccc2)cc(OC)c1OC	100.0	104.0	5.9	0.2
CCOc1ccc(N=C2NC(=O)S/C2=C\c2ccc(OC)cc2)cc1	101.0	99.0	-46.9	3.6
CN(C)C(=O)c1cn(-c2ccccc2)nc1-c1cccs1	102.0	99.0	x	-17.0
CC(C)c1ccc(NC(=O)COc2ncnc3cc(Cl)ccc23)cc1	100.0	97.0	12.5	-11.2
CCCn1c(=NC(=O)CCS(=O)(=O)c2ccccc2)sc2cc(S(N)(=O)=O)ccc21	99.0	98.0	7.2	-15.2
CC(O)Cn1c(=S)[nH]c2ccc(Br)cc2c1=O (stereo not given)	x	x	-5.4	22.0
O=C(c1cccs1)N1CCCc2ccccc21	102.0	105.0	12.1	6.8
CCc1nnc(SCC(=O)Nc2ccccc2C(F)(F)F)c2cc3occc3n12	102.0	100.0	-23.5	0.4
Cc1ccc(OCC(=O)N2c3ccccc3CC2C)cc1 (stereo not given)	99.0	102.0	-8.3	2.2
CCOP1(=S)Oc2cc3c(cc2C(C(=O)OC)(C(F)(F)F)O1)OCO3 (stereo not given)	101.0	102.0	-1.7	50.8
COCC(C)n1c(C)cc(C(=O)CSc2ccc(NC(C)=O)cc2)c1C (stereo not given)	101.0	103.0	-0.5	6.9
Nc1nnc(CCC(CCc2nnc(N)s2)(CCc2nnc(N)s2)C(=O)c2ccccc2)s1	101.0	102.0	-3.0	-2.5
CN(C)S(=O)(=O)c1cccc(C(=O)Nc2nnc(Cc3ccccc3)s2)c1	105.0	111.0	-9.7	-5.4
O=C(O)C(c1ccccc1)N1CCOCC1 (stereo not given)	102.0	100.0	-16.3	-9.1
CCOC(=O)c1c(CSC(=N)N)n(-c2ccccc2)c2cc(Br)c(OC(C)=O)cc12	103.0	102.0	-4.2	12.3
O=C(CN1C(=O)/C(=C\c2ccc(C(F)(F)F)cc2)Sc2ccccc21)N1CCc2ccccc2C1	104.0	109.0	-11.4	-8.0
CCOC(=O)C(Sc1nnnn1-c1ccc(Cl)cc1)c1ccccc1 (stereo not given)	104.0	111.0	-21.8	-9.1
CN1CN=C(SCc2ccc(Cl)c(Cl)c2)NC1	98.0	97.0	-7.8	4.0
CON(C)S(=O)(=O)c1cccc(C(=O)NC2CCSc3ccccc32)c1 (stereo not given)	106.0	112.0	-22.3	0.3
COCCCNc1c2c(nc3ccccc13)CCC2	104.0	100.0	-19.5	-33.2
C=CCN(C(=O)c1ccccc1OCc1c(C)noc1C)c1nc2c(s1)CCCC2	101.0	111.0	-8.5	-10.2
c1ccc2c(c1)oc1c(NCCCCNc3ncnc4c3oc3ccccc34)ncnc12	102.0	110.0	-0.2	24.1
CCCCOC(=O)C1=C(C)NC2=C(C(=O)CC(c3ccccc3)C2)C1c1ccco1 (stereo not given)	102.0	105.0	-2.7	78.5
Cn1ncc2c1ncn1nc(Cc3ccccc3)nc21	106.0	102.0	-0.3	5.2
CCc1ccc(CC)c(S(N)(=O)=O)c1	101.0	97.0	-19.5	-9.2
COC(=O)c1c(N2C(=O)Nc3ccccc3N2O)sc(C)c1C	101.0	103.0	-8.3	22.7
COc1ccc(CSC2=C(C#N)C(=O)NC3(CCCCC3)S2)cc1	107.0	92.0	-19.1	3.1
Cn1c(=NC(=O)CS(=O)(=O)c2ccccc2)sc2ccccc21	105.0	110.0	-25.4	4.7
CCc1ccc(C(=O)OCCN2C(=O)c3ccccc3C2=O)cc1	101.0	103.0	-30.2	-4.5
COC(=O)C1CSCN1S(=O)(=O)c1ccccc1 (stereo not given)	107.0	122.0	-22.3	5.2
COc1ccc(-c2n[nH]c(=S)n2/N=C/c2c(C)nn(-c3ccccc3)c2C)cc1OC	101.0	101.0	-17.2	1.8
CC1CCCC(C)N1C(=O)CN1c2cccc3cccc(c23)S1(=O)=O (stereo not given)	103.0	106.0	-26.7	4.5
Cc1ccc(-c2nn(C3OC(CO)C(O)C3O)c(=S)o2)cc1 (stereo not given)	104.0	107.0	-0.8	x

Additional records
Under each structure: PV pol inh, PV pol inh intensity, Mtb MenB inh, MbtI inh
Cc1ccc(C(=O)Cn2nnc(-c3ccccc3)n2)c(C)c1
→ 110.0, 115.0, 6.4, -5.2
C=CCN1CC(C(N)=O)Oc2ccccc21 (stereo not given)
→ 105.0, 111.0, -8.9, -7.8
O=C(CSC1=NCCS1)Nc1ccnc2ccccc12
→ 100.0, 102.0, 17.1, -0.4
O=C(NCCn1ccc2ccccc21)c1ccc(S(=O)(=O)N2CCCCC2)cc1
→ 103.0, 99.0, 1.1, 1.9
Cc1ccc(NC(=O)c2cc3ccccc3o2)c(C)c1
→ 102.0, 94.0, x, -7.5
Cc1ccc(S(=O)(=O)N2CCN(C(=O)C3C4C=CC(C4)C3C(=O)O)CC2)cc1C (stereo not given)
→ 97.0, 97.0, 0.1, -16.1
CC1c2ccsc2CCN1S(=O)(=O)c1ccccc1 (stereo not given)
→ 103.0, 108.0, -6.9, -10.1
COC(CN1C(=O)C2C3C=CC(C3)C2C1=O)OC (stereo not given)
→ 102.0, 107.0, -26.1, -13.3
S=C(Nc1ccccc1)N1CCn2c(nc3ccccc32)C1
→ 100.0, 102.0, 3.0, 1.8
CCOC(=O)c1ccc2c(c1)NC(CC(=O)Nc1ccc(F)cc1)C(=O)N2CC (stereo not given)
→ 110.0, 118.0, -8.2, -112.7
O=C(O)c1cccnc1Br
→ 99.0, 99.0, 2.8, -1.8
O=C(C1CCCN1S(=O)(=O)c1ccccc1)N1CCCCC1 (stereo not given)
→ 98.0, 99.0, -15.7, -7.7
CCCN(CCC)C(=O)C1Sc2nnc(C)n2NC1c1ccc(Cl)cc1 (stereo not given)
→ 101.0, 99.0, -7.6, -12.1
N#Cc1cc(Sc2nc3ccccc3s2)c(-n2nnc3ccccc32)cc1C#N
→ 110.0, 145.0, -26.7, 0.5
O=c1c2ccccc2nc(CO)n1-c1ccc2c(c1)OCO2
→ 99.0, 92.0, 15.1, 6.8
CCNc1nc(N2CCCC2)nc(N2CCCC2)n1
→ 101.0, 100.0, -3.6, -0.4
O=C(NCc1ccc2c(c1)OCO2)c1ccc(CS(=O)(=O)c2cccc(C(F)(F)F)c2)o1
→ 102.0, 105.0, -14.8, 10.2
FC(F)(F)c1ccc(=S)[nH]c1
→ 111.0, 119.0, -42.9, 93.4*
COc1ccccc1CN(C(=O)c1noc2c1CCc1sccc1-2)C1CCN(C)CC1
→ 101.0, 94.0, -21.2, 11.9
Nn1c(C2CCCO2)n[nH]c1=S (stereo not given)
→ 95.0, 97.0, -14.1, 6.2

3 records drawn at random from those above:
Under each structure: PV pol inh, PV pol inh intensity, Mtb MenB inh, MbtI inh
O=C(NCCn1ccc2ccccc21)c1ccc(S(=O)(=O)N2CCCCC2)cc1
→ 103.0, 99.0, 1.1, 1.9
O=C(CSC1=NCCS1)Nc1ccnc2ccccc12
→ 100.0, 102.0, 17.1, -0.4
S=C(Nc1ccccc1)N1CCn2c(nc3ccccc32)C1
→ 100.0, 102.0, 3.0, 1.8

(more compounds)
Under each structure: PV pol inh, PV pol inh intensity, Mtb MenB inh, MbtI inh
O=C(CN1C(=O)S/C(=C/c2ccc(N3CCCCCC3)o2)C1=O)N1CCCCCC1
→ 45.0, 244.0, -25.9, 7.9
COc1ccc(NC(=O)c2ccc3c(c2)NC(=O)c2ccccc2S3)cc1Cl
→ 102.0, 106.0, -6.6, 5.4
Cc1oc(S(=O)(=O)N2CCOCC2)cc1C(=O)O/N=C(\N)c1ccc(C(C)(C)C)cc1
→ 100.0, 102.0, -17.3, -11.7
Cc1nn(-c2ccccc2)c2c1N(C(=O)CCC(=O)N1CCN(c3ccccc3F)CC1)CCS2
→ 101.0, 101.0, -15.3, -19.5
CS(=O)(=O)N(CCC#N)Cc1ccc(/C=C2\C(=O)Nc3ccccc32)o1
→ 99.0, 105.0, -125.0, 10.9
Cc1cc2c(cc1S(=O)(=O)NCC1CCCO1)OCC(=O)N2 (stereo not given)
→ 102.0, 102.0, -7.1, -0.2
CN(CC(=O)NC1CC1)c1ccccc1
→ 101.0, 108.0, -11.9, -5.7
CC1(C(=O)O)CCC(C(=O)NNc2ncnc3ccccc23)C1(C)C (stereo not given)
→ 104.0, 99.0, -9.6, 5.2
c1csc(CN2CCNCC2)c1
→ 102.0, 107.0, -1.1, x
O=C1NC(=O)/C(=C/C(=O)N2CCN(C(=O)/C=C3\SC(=O)NC3=O)CC2)S1
→ 99.0, 103.0, -19.1, 4.5
Cc1cc2[nH]c(=O)c(=O)[nH]c2cc1S(=O)(=O)N1CCC(C)CC1
→ 104.0, 103.0, -18.8, -88.2
O=C(NCCCN1CCOCC1)c1cn(-c2ccccc2)nc1-c1ccccc1
→ 106.0, 107.0, x, -11.6
C=C(C)Cn1c(Cc2ccccc2)nc2ccccc21
→ 105.0, 110.0, -17.0, x
CC(C)c1ccc(OCC(=O)N2CCC(C(N)=O)CC2)cc1
→ 106.0, 110.0, -11.2, x
CC(C)C(NC(=O)c1ccc(F)cc1)C(=O)Nc1cccnc1 (stereo not given)
→ 98.0, 95.0, 6.4, -0.3
COc1ccc(C=Nc2cc(C(F)(F)F)ccc2-n2ccnc2)cc1
→ 103.0, 107.0, x, -12.8
O=C(NCCN1CCOCC1)c1cc2n(n1)CCCN(Cc1ccc(Cl)cc1)C2=O
→ 99.0, 104.0, -3.0, -10.4
Cc1cc(NCCO)nc(-c2ccc(Br)cc2)n1
→ 100.0, 101.0, 1.4, -22.1
